Ba CapD inh – blocks the Bacillus anthracis CapD enzyme; z-score (concentration not given with the values); 140,000 compounds, 0.23% hits; purified CapD enzyme, fluorescence intensity read-out; active compounds read low; some hits fall short of the stated cut;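 active = z-score under -4 in either of two replicates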;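 also: stock transfer was 100 nL into about 40 µL; score is relative to mean and spread of the plate; one replicate is shown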
AID504770 – E. coli YBA685 growth inhibition, screen for V. cholerae RctB inhibitors | z-score (test concentration not listed) | 130,000 compounds, 0.27% hits | E. coli YBA685 rctB-dependent plasmid, OD600 growth, 3 h; active compounds read low;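 active = z-score under -2 on both plates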;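 also: wells of about 30 µL received 100 nL stock; score is relative to mean and SD of the test wells; the first replicate is given; strong numbers were not always called active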
An asterisk follows results filed as active; nt = not tested or not shown. These rows are one share of the data, so the mix of outcomes need not match the whole.

#	Compound	Ba CapD inh	AID504770
1	CCOc1ccc(NC(=O)Cc2c(C(=O)O)[nH]c3ccccc23)cc1	0.17	-0.5
2	CN(C(=O)c1sccc1Oc1ccc(F)cc1[N+](=O)[O-])c1ccccc1	-0.08	nt
3	COc1ccc2c(c1)sc(=NC(=O)CSCC(=O)Nc1nc(-c3ccccc3)cs1)n2C	12	-0.6
4	O=C(c1ccc(Cl)cc1)C1CCN(C(=O)OCCc2ccccc2Cl)CC1	0.14	nt
5	O=C1NC(=S)SC1CNc1ccccc1 (stereo not drawn)	-1.1	1.4
6	CC(=O)OC(Cn1nc(C)cc1C)c1ccccc1 (stereo not drawn)	-0.28	-0.85
7	O=C(CNc1ccccc1Cl)N/N=C1\CCCc2ccccc21	nt	-0.2
8	CC(=NC1CC1)C1=C(O)c2ccccc2C1=O	nt	-0.35
9	CS(=O)(=O)N1CCSC1c1cccc(Cl)c1 (stereo not drawn)	-0.7	-1.6
10	O=C(NC(=O)c1ccccc1)Oc1ccc(Cl)cc1	-0.55	-0.6
11	CCc1cc2cc3c(cc2nc1SCCN1CCOCC1)OCO3	nt	-0.6
12	COc1ccc(C)c2c1CCC2	0.28	nt
13	CCOC(=O)c1cc(CC)sc1NC(=O)c1ccccc1C(=O)O	-0.72	0.55
14	CC(C)C(=O)N1CCN(c2ccccc2)CC1	-0.22	-0.45
15	CCCc1[nH]n(-c2ccc(F)cc2)c(=O)c1C=NCCN1CCNCC1	-0.64	nt

#	Compound	Ba CapD inh	AID504770
16	Cc1cnc(C(=O)OCCCCN2C(=O)c3ccccc3C2=O)cn1	nt	0.35
17	O=C1NC(=O)C2(COC(c3ccccc3)OC2)S1 (stereo not drawn)	0.15	0.4
18	CCOC(=O)COc1ccc(C2C3=C(CC(C)(C)CC3=O)OC3=C2C(=O)CC(C)(C)C3)cc1OC	-0.14	nt
19	Cc1ccsc1C1CC(=O)Nc2ccccc2S1 (stereo not drawn)	0.67	-0.2
20	CCc1ccc(C(=O)NCc2nnc(SC)n2C)cc1	nt	-0.8
21	Cc1nnc(SCc2ccccc2F)n1C(C)C	0.025	-1
22	COc1cc(C)cc2oc(=O)cc(-c3ccccc3)c12	-0.18	1.7
23	COc1cc(OC)c(NC(=O)CSc2nc3ccccc3n2S(=O)(=O)c2ccc(Cl)cc2)cc1Cl	-0.76	nt
24	Cc1cccc(N2CCN(C(=O)CN3C(=O)CCSc4ccccc43)CC2C)c1 (stereo not drawn)	-0.95	-0.8
25	O=C(Nc1cccc(Cl)c1)C1CC1(c1ccccc1)c1ccccc1 (stereo not drawn)	-0.17	nt
26	Cc1cccc(C(=O)OCCN2C(=O)c3ccccc3C2=O)c1	nt	0
27	Cc1ccc(S(=O)(=O)N=S(c2ccccc2)c2ccccc2)cc1	0.005	0.55
28	COc1ccc(C2/C(=C(\O)c3ccccc3)C(=O)C(=O)N2CCCN(C)C)c(OC)c1 (stereo not drawn)	-0.57	nt
29	CCOC(=O)c1cc2c(cn1)[nH]c1ccccc12	36	-0.85
30	O=C(Nc1ccc(N2CCCCC2)cc1)C1COc2ccccc2O1 (stereo not drawn)	nt	-0.55

Reformatted with two lines to a compound: entries from further up.
Values run as follows: Ba CapD inh | AID504770
29) CCOC(=O)c1cc2c(cn1)[nH]c1ccccc12
  36 | -0.85
16) Cc1cnc(C(=O)OCCCCN2C(=O)c3ccccc3C2=O)cn1
  nt | 0.35
27) Cc1ccc(S(=O)(=O)N=S(c2ccccc2)c2ccccc2)cc1
  0.005 | 0.55
20) CCc1ccc(C(=O)NCc2nnc(SC)n2C)cc1
  nt | -0.8
24) Cc1cccc(N2CCN(C(=O)CN3C(=O)CCSc4ccccc43)CC2C)c1 (stereo not drawn)
  -0.95 | -0.8
22) COc1cc(C)cc2oc(=O)cc(-c3ccccc3)c12
  -0.18 | 1.7

Following part:
#	Compound	Ba CapD inh	AID504770
31	O=C(COC(=O)c1ccccc1C(=O)c1ccccc1)NC1CCCCC1	0.42	0
32	Cc1ccc(/C(O)=C2\C(=O)C(=O)N(CCCN3CCOCC3)C2c2ccc(C(C)C)cc2)cc1 (stereo not drawn)	-0.44	nt
33	CCOC(=O)Cc1cc(=O)[nH]c(Nc2nc3ccccc3o2)n1	0.46	0
34	CCn1ncc(C2=NOC(C(=O)N3CCC(C(N)=O)CC3)C2)c1C (stereo not drawn)	0.69	-1.3
35	CCC(=O)N=c1sc2ccccc2n1CC(=O)OC	nt	1.1
36	Cc1cc(C)nc(N(C#N)CCOc2ccc(Cl)cc2)n1	nt	-0.3
37	COc1cc(-c2nc3ccccc3c(=O)n2NCc2cc(Br)ccc2O)cc(OC)c1OC	-0.08	nt
38	CCOc1ccc(N/C=C(\C#N)c2nc3ccccc3[nH]2)cc1	0.72	-0.55
39	CC(=O)NC1(C(=O)NC2CCCC2)CCCCC1	60	nt
40	O=C(COC(=O)c1cc(=O)c2ccccc2o1)Nc1ccc(S(=O)(=O)N2CCCC2)cc1	nt	-0.15
41	O=C1C=CC(=O)N1C1CC1	nt	-6*
42	CN(C)/C=C(\C#N)C(=O)Nc1ccccc1	0.23	0.35
43	COc1cccc(NC(=O)N2CCN(C3c4ccccc4-c4ccccc43)CC2)c1	0.66	0.35
44	O=C(Nc1cccc(C(F)(F)F)c1)c1ccc(F)c(S(=O)(=O)N2CCN(c3ccccn3)CC2)c1	0.12	nt
45	COc1cc(/C=C2\SC(=S)N(CCC(=O)Nc3ccccc3C(F)(F)F)C2=O)cc(OC)c1OC	-0.56	nt

#	Compound	Ba CapD inh	AID504770
46	CCCCc1nnc(NC(=O)CN2C(=O)c3ccccc3C2=O)s1	-0.29	1.8
47	Cc1ccc(-c2ccc(/C=C3/SC(=S)N(C)C3=O)o2)cc1Cl	2.2	-1.1
48	CCc1nnc(SC(CC)C(=O)NCc2ccc(C)cc2)c2cc3sccc3n12 (stereo not drawn)	-1.7	1.8
49	CN(C1CC(C)(C)NC(C)(C)C1)S(=O)(=O)CC12CCC(CC1=O)C2(C)C (stereo not drawn)	-0.74	-1.5
50	COc1ccc(C2(c3ccc(OC)cc3)C=Cc3ccc4ccccc4c3O2)cc1	-0.3	nt
51	FC(F)(F)c1cccc2c1[nH]c1nc3ccccc3nc12	-0.23	-0.8
52	CN(C(=O)c1ccccc1C(=O)N(C)C1CCS(=O)(=O)C1)C1CCS(=O)(=O)C1 (stereo not drawn)	0.05	0.55
53	CCN(C(C)=O)c1nc(COC(=O)c2ccc3c(c2)OCCO3)cs1	nt	-0.05
54	CN(C(=O)CSc1n[nH]c(N)n1)c1ccccc1	nt	-0.95
55	COc1ccc2[nH]c(C(=O)N3CCCN(Cc4ccc(F)cc4)CC3)cc2c1	18	-0.2
56	COc1ccc(/C=C2/N=C3SC(C)C(=O)N3C2=O)cc1 (stereo not drawn)	-0.49	-0.85
57	O=S(=O)(c1cccc2cccnc12)N1CCc2ccccc2C1	-0.17	-0.85
58	O=c1cc[nH]n1-c1cccc(Cl)n1	-1	0.75
59	O=C(c1ccc(Cl)cc1)c1cnc2n1CCC2	-0.77	-1.1
60	COc1ccc(Cc2nc3c4cnn(-c5c(F)c(F)cc(F)c5F)c4ncn3n2)cc1OC	-1.9	0.6

#	Compound	Ba CapD inh	AID504770
61	Cc1ccc(-c2n[nH]c3c2C(c2ccccc2)NC3=O)cc1 (stereo not drawn)	7.9	0.95
62	CN(CCOc1ccc(C=C2C(=O)NC(=O)NC2=O)cc1)c1ccccn1	0.74	nt
63	COc1ccc(Cc2nn3c(C)nnc3s2)cc1	0.71	0.5
64	COc1ccc(/C=C2/CCC/C(=C\c3ccc(OC)cc3)C2=O)cc1	-0.29	nt
65	CCCN1C(=O)C2(Nc3ccccc3-c3nc4ccccc4n32)c2ccccc21 (stereo not drawn)	2.5	-0.25
66	CCOC(=O)c1[nH]c(=O)[nH]c1CC1C(=O)CC(C)(C)CC1=O	-0.19	1.1
67	CC(=O)NC1C(OCc2ccccc2)OC2COC(C)(C)OC2C1O (stereo not drawn)	5.9	nt
68	O=C1COc2ccc(C(=O)COC(=O)c3ccc(S(=O)(=O)N4CCOCC4)cc3)cc2N1	nt	0.25
69	O=c1oc2ccccc2n1CCOc1cccc2ccccc12	1.8	-0.2
70	O=C1NC(c2ccccc2)(C(F)(F)F)SC2=CCCCCN12 (stereo not drawn)	nt	-0.45
71	COc1ccc(S(=O)(=O)N2CCc3ccccc3C2)cc1	-0.3	-0.6
72	O=C(OCC(=O)c1c[nH]c2ccccc12)c1ccc(N2CCCC2=O)cc1	nt	1.6
73	CC1(C)Cc2ccccc2/C(=C/C(N)=O)N1	-0.3	nt
74	CC(=O)Nc1ccc(-n2cccc2)cc1	0.22	-0.4
75	CC(=O)Nc1c(I)c(C(=O)NC2[C@H](O)OC(CO)[C@@H](O)[C@H]2O)c(I)c(N(C)C(C)=O)c1I (stereo partly drawn)	0.13	nt

#	Compound	Ba CapD inh	AID504770
76	O=C(O)COCC1CCCCO1 (stereo not drawn)	nt	0.95
77	O=C(c1ccc2c(c1)OCO2)N(c1ccccc1)C1C=CS(=O)(=O)C1 (stereo not drawn)	82	-0.8
78	CCOC(=O)C1C(=O)OC2(CCCCC2)C1C(=O)OCC (stereo not drawn)	6.1	nt
79	Cc1ccccc1NC(=O)CSc1nccc(=O)[nH]1	nt	-0.1
80	Nc1cccc(-c2ncn[nH]2)c1	nt	1.2
81	O=C(CCCOc1ccc(Cl)cc1)Nc1ccc2c(c1)OCCO2	-0.13	nt
82	Cc1ccc(-c2c[n+](CC(=O)c3ccc(Br)cc3)c3n2CCCCC3)cc1	-0.1	nt
83	COc1ccc(S(=O)(=O)CCc2nnc(-c3ccncc3)o2)cc1	-0.05	-0.2
84	O=[N+]([O-])c1ccc(N2CCC3(CC2)NCCc2c3[nH]c3ccccc23)cc1	-0.83	nt
85	O=C(OCCN(Cc1ccccc1)Cc1ccccc1)N1CCC2(CC1)C(=O)NCN2c1ccccc1	-0.17	nt
86	COc1ccc(C2=NN(C(=O)CCC(=O)O)C(c3ccccc3)C2)cc1 (stereo not drawn)	0.09	nt
87	CCN(CC)CC(O)Cn1c2ccc(Br)cc2c2cc(Br)ccc21 (stereo not drawn)	-0.59	nt
88	CC(=O)Nc1nnc(SCC(=O)N2CCc3ccccc32)s1	-0.26	1.1
89	COc1cc(/C=C2\C(=O)NC(=O)N(c3ccc(Cl)cc3)C2=O)c([N+](=O)[O-])cc1OC	1.1	nt
90	O=C(CSc1nccc(-c2cccs2)n1)Nc1ccccc1	0.72	-1.1

#	Compound	Ba CapD inh	AID504770
91	O=S(=O)(NC(=S)Nc1ccc(Cl)c(Cl)c1)c1ccccc1	-0.47	0.15
92	c1ccc(-n2nnnc2Sc2nnc3n2CCCCC3)cc1	nt	1.8
93	N#C/C(=C\c1cccs1)c1ccccn1	-3.4	nt
94	Clc1nc2ccccc2cc1C=NCc1ccco1	nt	-0.85
95	CCC(CC)NCc1ccc(OC)c(C)c1OC	nt	-0.55
96	CCC(=O)OCC12COC(c3ccccc3OC(=O)CC)C(C(C)=CC1C)C2C (stereo not drawn)	0.29	nt
97	O=S(=O)(CC(O)COc1ccc(Br)cc1)c1ccccc1 (stereo not drawn)	-1	-0.45
98	CN1CCN(c2ccc(Cl)cc2NC(=S)Nc2cccnc2)CC1	nt	-0.9
99	O=c1c2c(-c3cccs3)csc2nc(CN2CCOCC2)n1Cc1ncc(-c2ccccc2)o1	nt	0.55
100	COc1ccc(S(=O)(=O)N(C)CC(=O)NCc2ccccc2)cc1OC	-0.6	-0.65
101	Cc1ccc(CNCc2ccccc2)o1	0.11	0.15
102	COc1ccccc1-n1c(=S)[nH]c2[nH]ncc2c1=O	-0.15	nt
103	C=CCN1Cc2ccc(C(=O)O)cc2C1	-0.27	-0.55
104	COc1nc2ccccc2nc1CCC(=O)Nc1ccccc1	2	0
105	CC(/C=C/c1ccccc1)=N\NC(N)=S	-3.4	-0.45

#	Compound	Ba CapD inh	AID504770
106	CC(=O)c1ccc(N2CCN(c3ncc(C(F)(F)F)cc3Cl)CC2)cc1	0.55	nt
107	CCN1C(=O)/C(=C/c2cn(CCC#N)nc2-c2ccc(F)cc2)SC1=S	-0.65	-1
108	CC1(C)Nc2ccccc2NC1=O	0.12	-0.6
109	CCOC(=O)C1=C(N)OC2=C(C(=O)CC(c3ccccc3)C2)C1c1ccc(Cl)cc1 (stereo not drawn)	-0.41	nt
110	Cc1cc2oc(=O)c3c(c2c(O)c1CN1CCCCC1)CCCC3	1.7	-0.8
111	CCN(CC)c1ccc2c(c1)CCCN2	0.92	-0.7
112	COc1cccc(N2CC(=O)N(NC(=O)NC3CCCCC3)CC2=O)c1	0.23	-0.65
113	CCCn1c(=N)n(CC(O)c2ccccc2)c2ccccc21 (stereo not drawn)	0.38	-0.85
114	Cc1cc(OCCON2C(=O)CCC2=O)c(C)cc1Cl	-0.4	-0.65
115	OCCn1nnnc1-c1ccccc1	nt	-0.6
116	COc1ccc(-c2nc(-c3ccccc3)c(-c3ccc(Cl)cc3)[nH]2)cc1	80	nt
117	CCN(CC)CCCNc1nnc(C)c(=O)[nH]1	-0.04	-0.2
118	COc1ccc(C(=O)Nc2ccc(S(=O)(=O)N3CCCCCC3)cc2)cc1	-0.13	nt
119	COCc1nc(-c2ccccn2)[nH]c(=O)c1CC1CC1	0.16	-0.1
120	CN(C)CCNC(=O)c1cc2c(s1)-c1ccc(Cl)cc1SC2	-0.17	-1.9

#	Compound	Ba CapD inh	AID504770
121	COc1cc(OC)c(NC(=O)CCCNC(=O)Cn2cnc3sc4c(c3c2=O)CCCC4)cc1Cl	-1	nt
122	O=C(N1CCc2ccc(S(=O)(=O)N3CCN(C/C=C/c4ccccc4)CC3)cc2C1)C(F)(F)F	-1.1	nt
123	O=C(Nc1ccccc1)c1nn(-c2ccc(F)cc2)c(=O)c2ccccc12	-0.41	nt
124	O=C1C(=O)N(c2nccs2)C(c2cccc([N+](=O)[O-])c2)/C1=C(/O)c1ccc(Cl)cc1 (stereo not drawn)	-0.06	nt
125	COc1ccc2c(c1)c1nc(C)sc1n2CCN1CCOCC1	-0.28	1.4

Source: PubChem
